# HSD17B inhib: inhibitors of human HSD17B10 dehydrogenase; recombinant HSD17B10, NADH fluorescence kinetic; many of its hits are not listed in these tables; Potency, µM (doses to about 57.1 µM), for inactives: at the top dose activity change, negative = inhibition, actives largely listed as inhibitors; hit rate 7.6% among 75,000; AID 893; active = well fitted inhibition curve with a large enough effect; inconclusive = small, poorly fitted or top-dose-only effect; inactive = no such curve, though single readings can be large or run the other way;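 also: the protocol describes HADH2 (HSD17B10) and not the HSD17B4 of the title; nearly all actives have a fitted effect of over 70% in size; most hits overshoot -100% by far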
#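 20 nM HADH2, pH 9.0 Tris/Tween; cpd preinc 15 min RT; start w/ 1 mM NAD+ + 90 uM b-hydroxybutyryl-CoA; kinetic fluor ex360/em450 q30s x 4 min; delta last-first.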
# Numbers without * were called inactive; ? = inconclusive; [ ] = remark or other dose. % is scaled to controls: 0 for no effect and ±100 for the full control effect; potency is read from the fitted curve at half-maximal effect.
SMILES,HSD17B inhib
COc1ccc(C2C=C(c3ccccc3)Nc3nnnn32)cc1 (centres undefined),15%
CCN(CC)CCCCCOc1ccccc1OC,15%
CCCn1c(C)nc2c(N3CCN(C)CC3)nc(C)nc21,16%
Cc1cc(C)n(CNc2nc(C(F)(F)F)cs2)n1,-2%
N#Cc1ccccc1-c1ccc2ncnc(NC3CC3)c2c1,-2%
O=C(OCC(=O)N1CCc2ccccc21)c1ccc[n+]([O-])c1,-5%
Cc1nn(C)c(C)c1CNC(=O)c1cnn2c1NC(c1ccccc1)CC2C(F)(F)F (centres undefined),2%
CS(=O)(=O)N(CC(=O)N1CCCCCC1)c1ccc(Br)cc1,-8%
Clc1ccc(CSCc2ccc(Cl)cc2Cl)c(Cl)c1,-4%[11.4 µM]
CCOC(=O)N1CCN(C(=O)c2cnc(Nc3ccccc3OC)c3ccccc23)CC1,5%
CCOC(=O)c1c(N)nn(C(=O)CC)c1-c1ccccc1,6%
CCCOC(=O)C1C2C=CC3(CN(c4cccc(Cl)c4)C(=O)C13)O2 (centres undefined),1%
CCOC(=O)C(NC(=O)Nc1ccc(F)cc1)(OCC)C(F)(F)F (centres undefined),5%
O=C(COc1ncnc2sccc12)N1CCc2ccccc2C1,3%
COC(=O)Nc1ncc(CN2CCc3ccccc3C2)s1,7%

# Filtered by structure, those above with an aryl methoxy group
SMILES,HSD17B inhib
COc1ccc(C2C=C(c3ccccc3)Nc3nnnn32)cc1 (centres undefined),15%
CCN(CC)CCCCCOc1ccccc1OC,15%
CCOC(=O)N1CCN(C(=O)c2cnc(Nc3ccccc3OC)c3ccccc23)CC1,5%

# Additional structures follow:
SMILES,HSD17B inhib
CCn1c2ccccc2c2nnc(SCC(=O)NC(CC(C)C)C(=O)OC)nc21 (centres undefined),2%
COc1cc2c(cc1O)[C@@H](c1cc(O)c(O)c(OC)c1)[C@@](O)(C(=O)O)[C@@H](CO)[C@@H]2O,?
CCc1nn(CC(=O)NCCCN(CC)Cc2ccccc2)c(=O)c2cc3sccc3n12,-6%
O=C1c2ccccc2NC(c2cccc(F)c2)N1Cc1ccco1 (centres undefined),25µM*
O=C(Cc1ccccc1)N1CCCC(c2nc(-c3cccs3)no2)C1 (centres undefined),-2%
C=C(Cl)COC(=O)[C@H]1C2C=CC(C2)C1C(=O)O (some centres undefined),-7%
Cc1nn(C)c(C)c1N=Cc1c(O)ccc2ccccc12,-9%
C#CCCCO/N=C1/C[C@@H](O)[C@@H](O)[C@@H]2[C@@H]3C(=O)N(C4CCCCC4)C(=O)[C@H]3CC[C@H]12,0%[11.4 µM]
O=C(NCc1ccco1)c1cccc(S(=O)(=O)N2CCOCC2)c1,-2%
COC(=O)c1ccc(Cn2nc(C)c(Br)c2C)cc1,0%
O=C1CCc2cc(S(=O)(=O)NC(C(=O)NCc3cccnc3)c3ccccc3)ccc2N1 (centres undefined),2%
O=S(=O)(c1ccc(Br)s1)N1CCCCC1,0%
CCn1cc(C(=O)N2CCCCC2)c(=O)c2cc(S(=O)(=O)N3CCC(C)CC3)ccc21,-3%
Cc1nc(CNS(=O)(=O)c2ccccc2F)cs1,6%
O=S(=O)(c1ccc(S(=O)(=O)N2CCCC2)cc1)N1CCCCCC1,10%
CCOC(=O)Cc1cnc(NC(=O)Cn2nnc(-c3ccc(OCC)cc3)n2)s1,-5%
COc1ccc(C2CC(C(F)(F)F)n3ncc(C(=O)O)c3N2)cc1OC (centres undefined),-4%
COc1ccc(Cn2nnnc2C(c2ccccn2)N2CCN(c3cc(Cl)ccc3C)CC2)cc1 (centres undefined),-1%
N#Cc1nc(-c2ccc(OCc3ccccc3)cc2)oc1NCCN1CCOCC1,32µM*
Cc1ccc(S(=O)(=O)n2ccnc2)cc1C,8%
Cc1cc(C)n(-c2nc3ccccc3n3cnnc23)n1,-9%
CCCc1[nH]nc2c1C(c1cccnc1)C(C#N)=C(N)O2 (centres undefined),1%
Cc1ccc(OCC(=O)Nc2ccc(O)c(-c3nc4ccccc4o3)c2)cc1,-4%
CC(C)Cn1c(-c2ccc(Cl)cc2)cnc1SCC(=O)N1CCOCC1,-2%
COCCn1c(SCC(=O)Nc2nnc(C)s2)nnc1-c1cc2ccccc2cc1O,14%
O=C(O)CCC(=O)Nc1ccc(N2CCCCCC2)cc1,6%
COC(=O)c1ccccc1NC(=O)C1CCN(S(=O)(=O)c2cc(C)ccc2OC)CC1,?
CCCn1c(SCc2nc(-c3cccs3)no2)nnc1-c1ccncc1,2%
CC(=O)Nc1nc(=O)c2ccccc2s1,4%
CCOc1ccc(/C=C/C(=O)c2cccs2)cc1,?

# Filtered by structure: the compounds so far containing fluorine.
SMILES,HSD17B inhib
Cc1cc(C)n(CNc2nc(C(F)(F)F)cs2)n1,-2%
Cc1nn(C)c(C)c1CNC(=O)c1cnn2c1NC(c1ccccc1)CC2C(F)(F)F (centres undefined),2%
CCOC(=O)C(NC(=O)Nc1ccc(F)cc1)(OCC)C(F)(F)F (centres undefined),5%
O=C1c2ccccc2NC(c2cccc(F)c2)N1Cc1ccco1 (centres undefined),25µM*
Cc1nc(CNS(=O)(=O)c2ccccc2F)cs1,6%
COc1ccc(C2CC(C(F)(F)F)n3ncc(C(=O)O)c3N2)cc1OC (centres undefined),-4%

# Additional compounds
SMILES,HSD17B inhib
COc1ccc(NC(=O)C2CC(=O)N(c3cc(C)ccc3C)C2)cc1 (centres undefined),8%
Cn1c(-c2ccccc2)cnc1SCc1nc2ccccc2c(=O)[nH]1,0%
O=C1CCCN1Cc1ncnn1-c1ccccc1,12%
CCC(=O)N1CCN(c2cc(C)ccc2C)CC1,0%
CCN1C(=O)[C@H]2[C@H]3[C@H](O)[C@H](O)C/C(=N/OCC[C@H]4C=C[C@H](OC(C)=O)[C@@H](COC(C)=O)O4)[C@@H]3CC[C@@H]2C1=O,2%[11.4 µM]
CCCNC(=O)OC[C@@H]1O[C@H](c2ccccc2)C=C[C@@H]1Oc1ccc(OC)cc1,-1%[11.4 µM]
O=C(c1cccc(S(=O)(=O)N2CCCC2)c1)c1nnc(-c2ccncc2)o1,-9%
CCOC(=O)Cn1c(CN(Cc2ccccc2)Cc2ccccc2)nc2c1c(=O)n(C)c(=O)n2C,2%
O=C(Nc1cc(C(F)(F)F)ccc1F)C1CCC1,9%
O=C(c1cc(Cl)ccc1Cl)N1CCOCC1,4%
O=c1nccc(NCc2ccco2)[nH]1,9%
Cc1ccnc(NS(=O)(=O)c2ccccc2)n1,8%
CCn1cc(Br)c(C(=O)N2CCN(c3ccccc3)CC2)n1,-1%
Cc1ccc2nsnc2c1S(=O)(=O)Nc1cccc2nsnc12,?
O=C(Nc1ccccc1F)c1ccc(S(=O)(=O)NCC2CCCO2)cc1 (centres undefined),5%
CCCCCCNC(=O)Nc1ccccc1,8%
O=c1c2ccccc2nnn1CSc1nc2cc(Cl)ccc2c(=O)n1Cc1ccco1,-2%
CN1CCN(C(=O)C2CCC(CNS(=O)(=O)c3cccc4cccnc34)CC2)CC1 (centres undefined),1%
CC(C)NC(=O)C1CCN(C(=O)C(C(=O)c2ccccc2)n2cc(Cl)ccc2=O)CC1 (centres undefined),1%
COC(=O)c1sccc1NC(=O)C1C2C=CC(O2)C1C(=O)O (centres undefined),-19%
C#CCNc1nc(C)nc2c1nnn2Cc1ccccc1F,2%
COc1ccc(OCC(O)Cn2c(=N)n(CCN3CCOCC3)c3ccccc32)cc1 (centres undefined),-10%
CCOc1ccc(N(CC(=O)NCc2cccc(OC)c2)S(=O)(=O)c2c(C)noc2C)cc1,-4%
Nc1nc(CSCc2ccccc2)nc(N2CCOCC2)n1,-1%
COCCCn1c(SCC(=O)N2CCc3ccccc32)nnc1-c1ccoc1C,-4%
COC(=O)c1ccc(C23CC4(C2)[C@H](CN(Cc2ccc(C(F)(F)F)cc2)[C@@H]4c2ccccc2)C3c2ccc(Cl)nc2)cc1 (some centres undefined),?
O=C(NCCN1CCN(c2ccccc2)CC1)c1cccn2c(=O)c3ccccc3nc12,-3%
CCOC(=O)c1sc(NC(=O)c2cc(S(=O)(=O)N3CCOCC3)ccc2C)nc1C,-10%
CCOc1ccc(C(CC(=O)O)NS(=O)(=O)c2ccc(C)cc2)cc1OC (centres undefined),11%
O=C(COc1ccccc1F)Nc1ccc(S(=O)(=O)NCc2ccco2)cc1,-7%

# Structures above that have an NH in an aromatic ring, in the order listed:
SMILES,HSD17B inhib
CCCc1[nH]nc2c1C(c1cccnc1)C(C#N)=C(N)O2 (centres undefined),1%
Cn1c(-c2ccccc2)cnc1SCc1nc2ccccc2c(=O)[nH]1,0%
O=c1nccc(NCc2ccco2)[nH]1,9%

# The listing continues.
SMILES,HSD17B inhib
CC1(C)CC(=O)C(C=NCC2CCNCC2)=C(O)C1,4%
Cc1csc2nc(CNS(=O)(=O)c3cccnc3)cn12,2%
COc1ccc(-n2c(SCC#N)nc3ccccc3c2=O)cc1,-6%
CCOC(=O)CCCc1sc(N)nc1-c1[nH]c(=O)[nH]c1C,?
CCCC/C=C/C(NC(=O)c1ccc(C(F)(F)F)cc1)c1ccccc1 (centres undefined),-12%
Cc1ccc(C(C(=O)NCCc2ccccc2)N(C(=O)c2csnn2)C2CC2)o1 (centres undefined),2%
CC(=O)OC1CC[C@@]2(C)C3CC[C@@]4(C)C(CC5O[C@@]6(CCC(C)CO6)C(C)C54)C3CC[C@@H]2C1 (some centres undefined),1%
c1cncc(CNc2nc(-c3ccc4c(c3)OCO4)nc3ccccc23)c1,?
CCOc1ccc(N(CC(=O)NCC2CCCO2)S(=O)(=O)c2ccc(OC)c(OC)c2)cc1 (centres undefined),9%
COc1ccc(N2CCN(c3nc(NCCO)nc(N4CCOCC4)n3)CC2)cc1,3%
Cc1nc2ccccc2c(=O)n1CC(=O)N1CCOCC1,3%
COc1ccc(-n2nnc3c(SCC(=O)NCc4ccco4)ncnc32)cc1,?
O/N=C1/CCCCc2sccc21,-3%
NC(=O)NC1CCCc2c1[nH]c1ccc(Cl)cc21 (centres undefined),0%
OCC(CO)(CO)n1cnnn1,5%
Cc1ccc(-c2nnc(CSc3nnc(COc4ccccc4)n3-c3ccc(C)cc3)o2)cc1,10%
CCN1CCN(CC(=O)Nc2ccc(Cl)c(Cl)c2)C(=O)C1=O,1%
O=C(NCc1cccs1)O[C@H]1C[C@H]2CC[C@@H]1C2,-1%[11.4 µM]
OCCSCc1ccccc1,5%[11.4 µM]
CC(=O)OC[C@@H]1O[C@@H](O/N=C2/C[C@@H](O)[C@@H](O)[C@@H]3[C@@H]4C(=O)N(C(C)(C)C)C(=O)[C@H]4CC[C@H]23)[C@H](OC(C)=O)[C@H](OC(C)=O)[C@@H]1OC(C)=O,-1%[11.4 µM]
CCOC(=O)C1=C(C)N=C2SCCC(=O)N2C1c1sccc1C (centres undefined),3%
O=C(c1ccco1)N1CCN(C(c2ccccc2Cl)c2nnnn2CC2CCCO2)CC1 (centres undefined),2%
O=C1c2ccccc2C(=O)N1CCc1nc2ccccc2c(=O)n1-c1ccccn1,7%
O=C(O)c1ccc(CS(=O)(=O)c2cccc(C(F)(F)F)c2)o1,4%
O=c1cc(-c2cccc(O)c2)oc2cccc(O)c12,-13%
O=C(Nc1ccccc1)N1CCCC2(CCN(C(=O)c3cnccn3)CC2)C1,3%
O=C(CN1CCN(S(=O)(=O)c2ccc(Br)cc2)CC1)Nc1ccc2c(c1)OCCO2,-4%
Cc1c(NC(=O)Nc2ccccc2Cl)sc(=S)n1C,35%[activator]
CC1(C)Cc2c(sc(/N=C/N3CCOCC3)c2C#N)C(C)(C)N1,-2%
COc1cc(CNc2ccc(C)c(C)c2)cc(OC)c1OC,-12%
COc1ccc(-c2nnc(SCC(=O)N(Cc3ccccc3)C(C)(C)C)o2)cc1OC,?
CN(C)C(=O)CSc1nnc(CCN)o1,-9%
NC(=O)c1sc2nc3c(c(-c4ccco4)c2c1N)CCC3,-19%
COCC(=O)N(Cc1cc2cc(OC)ccc2[nH]c1=O)c1ccccc1OC,25µM*
C=CCn1c(=O)c(C(=O)Nc2ccccc2C(=O)OCC)c(O)c2ccccc21,?
CC1=CC(C)(C)N2C(=O)C3(N=C(N)NC(Nc4ccccc4)=N3)c3cc(C)cc1c32 (centres undefined),-25%
CCN(CC)S(=O)(=O)c1ccc(NC(=O)CSc2nnc(-c3ccc(F)cc3)o2)cc1,9%
CCCCc1ccc(NC(=O)OC)cc1,2%
O=C(Cn1cc2c(n1)CCCC2)N1CCc2ccccc21,9%
COc1ccc(C(=O)NCc2nc3ccccc3[nH]2)cc1OC,4%
O=C1c2oc3ccccc3c(=O)c2C(c2cccc(O)c2)N1CCCN1CCOCC1 (centres undefined),-10%
Cn1c(=O)c2c(nc(Sc3nc4ccccc4n3CC(=O)N3CCCCC3)n2C)n(C)c1=O,4%
O=C(CSc1nnc2c(n1)[nH]c1ccc(F)cc12)OCc1ccccc1,-1%
O=C1c2ccccc2C(=O)c2c(Nc3ccc4c5c(cccc35)C(=O)c3ccccc3-4)cccc21,0%[11.4 µM]
CCCCc1nnc(SCc2ccc(OCC)cc2)n1N,5%
CCCc1nc(SC2CCCC2)c2c(=O)n(C)c(=O)n(C)c2n1,6%
Nc1nncn1C(=O)c1ccccc1Cl,1%
Cc1noc(C)c1-c1cc(NCc2cccnc2)ncn1,-13%

# Not all compounds are listed (hit frequency here may not be typical).
